Assay outcomes from PubChem BioAssay.
CtBP-E1A blk: qHTS Assay for Inhibitors of the CtBP/E1A Interaction | AlphaScreen GST-E1A/His-CtBP binding, 1536-well; stronger effect = lower value; control for the full effect not named in the record | CtBP / adenovirus E1A interaction (AlphaScreen) | hit rate 0.49% among 340,000 | activity change, % (no concentration beside the values) | AID 651724, 2012; in the data active means activity change below about -65%; inconclusive means about -30% to -65%; inactive means above about -30%; also: % is scaled to controls: 0 for no effect and ±100 for the full control effect; compound concentration not given in the record
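Protein mix (5X: 125 nM each GST-E1A, His-CtBP) was incubated with pinned compound 2 h at 37 deg C in dark, in 50 mM Tris pH 8.0 buffer with 300 mM NaCl. Glutathione donor and nickel acceptor beads followed; AlphaScreen signal read after 1 h.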
Six1-Eya2 inh: qHTS Assay for Inhibitors of the Six1/Eya2 Interaction. Homeobox protein SIX1 (Homo sapiens) + Protein phosphatase EYA2 (Homo sapiens), …. AlphaScreen GST-Six1/His-Eya2 binding, biochemical; stronger effect = lower value; control for the full effect not named in the record. activity change, % (concentration not given with the values). hit rate 0.56% among 360,000. AID 651725, 2012; in the data active = activity change below about -65%; inconclusive = about -30% to -65%; inactive = above about -30%; also: % is scaled to controls: 0 for no effect and ±100 for the full control effect
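Compounds are tested against tagged Six1 and Eya2 proteins bridged by glutathione donor and nickel acceptor beads; after a one-hour incubation at 37 °C without light, AlphaScreen emission is recorded.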
D2 PAM: Beta-Arrestin HTS for Positive Allosteric Modulators of the Human D2 Dopamine Receptor: Potentiators | potentiation, % (concentration not given with the values) | hit rate 0.23% among 360,000 | DiscoveRx D2 beta-arrestin cells, luminescence, 90 min; 100% = 57 uM dopamine signal | D(2) dopamine receptor (Homo sapiens), P14416; active = potentiation of 50% or more; inconclusive = 30% to 50%; inactive = 30% or less;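 also: compound concentration not given in the record; tested on top of an EC20 dose of dopamine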
Target sequence (P14416 whole entry, looked up): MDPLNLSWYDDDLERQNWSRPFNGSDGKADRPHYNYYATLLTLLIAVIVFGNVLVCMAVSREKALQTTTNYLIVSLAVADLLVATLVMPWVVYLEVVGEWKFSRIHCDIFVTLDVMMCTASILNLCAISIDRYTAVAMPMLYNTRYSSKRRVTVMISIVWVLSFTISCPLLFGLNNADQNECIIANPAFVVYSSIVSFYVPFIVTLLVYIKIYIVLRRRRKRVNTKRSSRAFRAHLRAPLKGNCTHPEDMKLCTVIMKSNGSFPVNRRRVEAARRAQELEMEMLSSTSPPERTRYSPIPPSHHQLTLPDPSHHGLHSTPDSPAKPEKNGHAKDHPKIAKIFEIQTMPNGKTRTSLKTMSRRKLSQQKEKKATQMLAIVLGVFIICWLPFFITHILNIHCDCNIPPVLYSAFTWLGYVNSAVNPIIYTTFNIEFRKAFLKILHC
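PathHunter beta-arrestin assay in DiscoveRx D2 cells. Compounds were added with an EC20 of dopamine (50 nM final) for 90 min at 37 deg C. Luminescence was read 1 h after detection reagent, with 57 uM dopamine as the EC100 control.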
gsp antag: qHTS for Antagonists of gsp, the Etiologic Mutation Responsible for Fibrous Dysplasia/McCune-Albright Syndrome: qHTS; gsp-mutant cells, cAMP HTRF, 30 min; control for the full effect not named in the record; hit rate 0.4% among 340,000; AID 624288, 2012; Potency, µM (top dose mostly 76.9 µM), inactives show top-dose activity change, negative = inhibition, usual class: inhibitors; active = falling curve of any shape with a large fitted effect; inconclusive = falling curve, mostly with a smaller effect; inactive = flat or rising curve; cell line not stated here;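 also: intracellular cAMP measured with PDE inhibitor Ro 20-1724 present during compound exposure; potency is read from the fitted curve at half-maximal effect; % is scaled to controls: 0 for no effect and ±100 for the full control effect; nearly all actives have a fitted effect of over 65% in size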
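Measurement of cellular cAMP by homogeneous time-resolved fluorescence following a 30 min compound exposure at 37C. The PDE inhibitor […] was present throughout; the assay buffer was DPBS with 0.05% BSA and 0.005% Tween 20.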
gsp agonist: qHTS for Agonist of gsp, the Etiologic Mutation Responsible for Fibrous Dysplasia/McCune-Albright Syndrome: qHTS; gsp mutant cells, cAMP HTRF, 30 min; control for the full effect not named in the record; Potency, µM (doses to about 76.9 µM), without a hit: top-dose activation (cAMP increase), hits mostly activators; hit rate 0.13% among 340,000; active = well fitted activation curve with a large enough effect; inconclusive = small, poorly fitted or top-dose-only effect, or another doubt; inactive = no such curve, though single readings can be large or run the other way; cell line not stated here;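 also: phosphodiesterase inhibitor Ro 20-1724 added with compounds to block cAMP breakdown; potency is read from the fitted curve at half-maximal effect; nearly all actives have a fitted effect of over 60% in size; about a fifth of the inactives were tested at one dose only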
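Cells stably selected in G418 were plated at 2000/well, grown 16-24 hr, then given compounds in DMSO with the PDE inhibitor […] (300 uM solution added) for 30 min at 37C; cAMP was read by HTRF.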
D2 agonist: Beta-Arrestin HTS for Positive Allosteric Modulators of the Human D2 Dopamine Receptor: Agonists | DiscoveRx PathHunter D2 beta-arrestin, luminescence, 90 min; 100% = 57 uM dopamine signal | activation, % (no concentration beside the values) | hit rate 0.084% among 360,000; in the data active = activation above about 40%; inconclusive = about 15% to 40%; inactive = below about 15%; also: compound concentration not given in the record; the text of the record calls up to 30% inactive
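Agonist mode: compounds alone added to overnight-plated D2 PathHunter cells for 90 min at 37 C, with 57 uM final dopamine (EC100) defining full response. Beta-arrestin recruitment detected by chemiluminescent reagent, read after 1 h at ambient temperature.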
Active calls of the source: *; ? = inconclusive; . = not tested or not shown; [ ] = remark or other dose.

SMILES | CtBP-E1A blk | Six1-Eya2 inh | D2 PAM | gsp antag | gsp agonist | D2 agonist
CC(=O)c1cc(-c2ccccc2)n(CCC(=O)NC2CCCCCC2)c1C | -7 | -3 | -20 | -1% | 9% | -0.7
O=C(CN1CSCC1=O)N1CCN(S(=O)(=O)c2cc(C(F)(F)F)ccc2Cl)CC1 | 4 | -2 | 14 | 5% | 6%[15.4 µM] | -0.2
CC[C@]12c3[nH]c4ccc(Cl)cc4c3CCN1C(=O)[C@@H](CC(=O)NCc1ccc(OC)c(OC)c1)C[C@@H]2C(=O)N1CCN(C(=O)C2CC2)CC1 | 3 | 0 | -4 | -8% | . | -2.2
O=C(Cn1c(=O)sc2ccccc21)Nc1ccc(S(=O)(=O)N2CCCCC2)cc1 | -9 | -19 | 17 | -6% | 17% | -1.8
CCOCCCNc1nc(-c2ccccc2)nc2ccccc12 | . | 10 | -5 | ? | -1% | 1.0
O=C(OCc1ccccc1)C1=NNC2C(=O)N(Cc3ccccc3)C(=O)C12 (stereo not drawn) | 8 | -2 | -6 | -5% | 18% | 6.0
Cc1ccc(C(=O)ONc2ccc(N=NC(=O)c3ccccc3O)cc2)cc1 | 3 | 9 | -25 | 2% | -51% | -7.4
Cc1[nH]c2ccccc2c1C(=O)CSc1nc2ccccc2[nH]1 | 22 | 3 | -14 | -5% | -40%[inhibitor] | 1.0
O=C(Nc1ccc(N2CCOCC2)cc1N1CCOCC1)c1ccc(F)cc1 | 5 | 2 | -26 | -14% | 7%[15.4 µM] | 1.0
Cn1cccc1/C=C1\CCC/C(=C\c2cccn2C)C1=O | ? | ? | -11 | -27% | -3% | -6.2
COc1cccc(-c2cc3nc(-c4ccccc4)cc(N4CCCC(O)C4)n3n2)c1 (stereo not drawn) | . | 22 | -7 | -11% | 5% | 0.2
Clc1ccccc1Cn1c(/C=C/c2ccco2)nc2ccccc21 | 17 | 2 | -10 | -6% | 13% | -0.4
c1ccc(CCNc2ncnc3nc[nH]c23)cc1 | 3 | 1 | -11 | 3% | -42%[inhibitor] | 0.5
CCc1nnc(NC(=O)CCC(=O)N2CCN(c3ccccn3)CC2)s1 | -3 | 1 | -15 | 3% | -28% | -0.3
COc1ccccc1-n1c(SCC(=O)NC2CCCCC2)nc2c(c1=O)SCC2 | -2 | -6 | -2 | -7% | 9% | 2.6
CC(C)OC(=O)CSc1nnc2c(n1)[nH]c1ccc(F)cc12 | 0 | -4 | 2 | -25% | 11% | -2.7
O=C(c1cc2ccccc2[nH]1)N1O[C@@H]2C=C[C@H]1C2 | 1 | 0 | . | -9% | . | 0.6
CC(=O)C1=C(C)NC(=O)NC1c1cccc([N+](=O)[O-])c1O (stereo not drawn) | 0 | -1 | -14 | . | 3%[15.4 µM] | -4.8
CC(C)C[C@H](NC(=O)N1CCN(c2ccccc2)CC1)C(=O)O | 10 | 5 | 0 | 6% | -8% | 1.9
CC(=O)N(c1cccc(Br)c1)C1C=CS(=O)(=O)C1 (stereo not drawn) | 18 | 6 | -14 | -3% | 0% | -1.7
Cc1ccccc1N/C(=C(/C(Cl)=C(Cl)Cl)[N+](=O)[O-])n1nnc2ccccc21 | -4 | -4 | 1 | -9% | -29% | 3.7
COc1ccc(S(=O)(=O)NCCC(=O)NC2CCCCC2C)cc1[N+](=O)[O-] (stereo not drawn) | 0 | 1 | -4 | -3% | 21% | -0.7
COc1cc(NC(=S)Nc2ccccn2)c(OC)cc1Cl | . | -1 | -7 | 7% | -71%[inhibitor] | -4.0
CC1CCCC(NC(=O)CCNC(=O)c2ccc(Br)cc2)C1C (stereo not drawn) | -1 | 1 | -14 | 0% | 9%[15.4 µM] | -4.2
CC1=CC(c2ccccc2)n2nnnc2N1 (stereo not drawn) | -3 | 0 | -4 | 2% | 6% | 2.6
CC(C)CNC(=O)C(=O)N/N=C/c1cccs1 | -5 | -4 | -3 | 6% | -3% | 0.2
CC(C)(C)c1ccc(COC(=O)CN2C(=O)NC3(CCCC3)C2=O)cc1 | -24 | -2 | -3 | 9% | 17% | 5.1
CCCc1nc(SCC(=O)N2CCc3ccccc3C2)c2ccccc2n1 | 2 | 0 | -7 | 0% | 10% | -1.2
COc1ccc(C/C(C)=N/NC(=S)Nc2ccc(Cl)cc2)cc1 | -5 | -11 | -7 | -3% | -1%[15.4 µM] | -2.3
COc1ccc(-c2c(-c3cc(OC)cc(OC)c3)sc3ccc(OC)cc23)cc1 | -8 | 2 | -4 | -10% | . | -3.6
N#CC1=C(N)Oc2cc(N)ccc2C1c1cccc(Br)c1 (stereo not drawn) | 6 | -9 | -4 | 24% | 36% | -2.7
Cc1ccccc1OCCSc1nnc(C)n1-c1ccccc1 | 3 | -1 | -10 | 2% | -6% | -0.9
O=C(N/N=C/c1c[nH]c2ccccc12)c1ccccc1 | . | -1 | 11 | -9% | 0% | 5.0
CCOC(=O)NNC(=O)C12CC3CC(CC(C3)C1)C2 | 6 | 22 | -2 | 0% | 3% | 1.4
COc1ccc(C)cc1NC(=O)CN(C)S(=O)(=O)c1cnc[nH]1 | -10 | 2 | -9 | 1% | -80%[inhibitor] | -0.8
Fc1ccc2nc(N3CCCC3)sc2c1 | 13 | 1 | 12 | 11% | -10%[15.4 µM] | 3.8
Cc1ccc(C)c(OCC(=O)N2CCc3ccccc3C2)c1 | 6 | 7 | -17 | -9% | 18% | -5.2
C=CCNc1nc(N)c(C(=O)Nc2cc(C)on2)s1 | -4 | -1 | -2 | -14% | -44%[inhibitor] | 0.2
CC(/C=N/n1c(-c2n[nH]c3c2CCC3)n[nH]c1=S)=C\c1ccco1 | -3 | -1 | -16 | -34% | -3%[15.4 µM] | -19
Cc1ccc(NC(=O)CN2C(=O)S/C(=C/c3ccc(-c4cc(C(=O)O)ccc4C)o3)C2=O)cc1C | -9 | -12 | -5 | -26% | -25% | -2.1
O=C(CCS(=O)(=O)c1ccccc1)N(CCCN1CCOCC1)c1nc2ccc(F)cc2s1 | 4 | 1 | -9 | 0% | -79%[inhibitor] | 0.0
CCOC(=O)c1cccc(NC(=O)C2CCN(S(=O)(=O)c3cccs3)CC2)c1 | -12 | -5 | -10 | ? | -18% | -2.4
COc1ccc(S(=O)(=O)Nc2cccc(-c3ccc(N4CCCCCC4)nn3)c2)c(OC)c1 | -16 | -9 | -11 | ? | ? | 7.3
O=C(Cn1nnc2c(cnn2-c2ccccc2)c1=O)NCc1cccs1 | 2 | 0 | 11 | 2% | 16% | -2.2
CC(=O)Nc1nc(CC(C)C)cc(-c2ccccc2)c1C#N | -6 | 0 | 0 | -15% | 6% | -2.5
CC(=O)Nc1ccc(NC(=S)NC(=O)c2ccc([N+](=O)[O-])cc2)cc1 | 11 | -4 | 7 | 4% | 19% | 1.0
CCCC(=O)N1CCC1(C)C(=O)Nc1ccc(-n2cncn2)cc1 (stereo not drawn) | 1 | 8 | -3 | . | . | 5.1
Cc1ccnc(N/C=C(\C#N)c2nc(-c3cccc(Br)c3)cs2)c1 | 4 | 33 | -15 | -8% | 23% | -5.6
COc1ccc(NC(=O)NCCCN2CCN(c3cc(C)ccc3C)CC2)cc1 | -13 | 0 | -16 | 10% | 12% | -4.2
CCOc1ccccc1NC(=O)CN(C)S(=O)(=O)c1cnc[nH]1 | . | -2 | 14 | 4% | -16% | -0.6
COc1ccc(NS(=O)(=O)c2cccc(C(=O)NN=Cc3cc(Br)c(O)c(Br)c3)c2)cc1 | -11 | -9 | -3 | -14% | ? | -6.2
CCCC(=O)NC(c1ccccc1Cl)c1c(O)ccc2ccccc12 (stereo not drawn) | 9 | -7 | -1 | ? | -3%[15.4 µM] | -7.4
O=C(Nc1ccc2[nH]ncc2c1)C1CCC1 | -14 | -7 | 2 | 8% | -1%[15.4 µM] | 1.4
O=c1c2sc3nc(N4CCOCC4)c4c(c3c2ncn1C(c1ccccc1)c1ccccc1)CCCC4 | . | 7 | -9 | 6% | 0% | -3.4
CCN(C(=O)CSc1ccc2c(c1)OCCO2)C1CCS(=O)(=O)C1 (stereo not drawn) | -1 | 2 | 4 | 5% | -52%[inhibitor] | -0.2
C[C@]12c3[nH]c4cc(-c5ccco5)ccc4c3CCN1C(=O)[C@@H](CC(=O)NCc1ccco1)C[C@@H]2C(=O)N1CCCCC1 | -19 | -18 | -2 | -33% | . | -1.9
COC(=O)c1cc(OC)nc(OC)c1 | . | 7 | -14 | 6% | -2% | -4.6
CCCc1cc(=O)oc2c(C)c(OCC(=O)NC3CC(C)(C)NC(C)(C)C3)ccc12 | 24 | 11 | -4 | 2% | 19% | -1.0
COCC1CCN(C(=O)c2cc(COc3ccc(-n4cncn4)cc3)on2)CC1 | 1 | 16 | -8 | -18% | -4% | -4.6
Cc1nc2cc(-c3cccc(F)c3)nn2c(C)c1CCC(=O)NC(C)CCc1ccco1 (stereo not drawn) | -19 | -25 | 1 | ? | -16% | 1.1

Continuation.
SMILES | CtBP-E1A blk | Six1-Eya2 inh | D2 PAM | gsp antag | gsp agonist | D2 agonist
CC1CC(C)CN(CC(=O)NCCc2ccc(S(N)(=O)=O)cc2)C1 (stereo not drawn) | 0 | 8 | -1 | 2% | 0% | -0.3
CCCCn1c(=O)[nH]c(=O)c2c1nc(-c1cccc(OC)c1)n2C | 1 | -5 | 15 | -1% | -34%[15.4 µM] | -1.0
COc1ccc(-c2nnc(-c3cc(OC)c(OC)c(OC)c3)o2)cc1OC | -15 | -9 | 4 | -12% | ? | 0.2
CCc1nc2ccc(C(=O)N3CCN(C(=O)c4ccco4)CC3)cn2c1N(C)Cc1nccs1 | -1 | 6 | -5 | . | . | -3.7
